High-throughput results as filed in PubChem BioAssay.
Vaccinia Venus – vaccinia inhibition (Venus reporter) | Vaccinia virus Venus reporter expression, fluorescence | Potency, µM (top dose mostly 36.5 µM), inactives show at the highest dose activity change, negative = inhibition, usual class: inhibitors | 330,000 compounds, 0.46% hits | AID 720580; active means well fitted inhibition curve with a large enough effect; inconclusive means small, poorly fitted or top-dose-only effect; inactive means no such curve, though single readings can be large or run the other way; tested in A549 cells; further: nearly all actives have a fitted effect of over 30% in size; inactives centre near -10
VACV mCherry inh – inhibitors of vaccinia virus infection (mCherry reporter signal); Potency, µM (highest dose often 36.5 µM), for the others: at the highest dose activity change, negative = inhibition, actives largely listed as inhibitors; Vaccinia virus mCherry reporter infection, fluorescence; about a quarter of the inactives have no number; 310,000 compounds, 0.63% hits; active = well fitted inhibition curve with a large enough effect; inconclusive = small, poorly fitted or top-dose-only effect; inactive = no such curve, though single readings can be large or run the other way; tested in A549 cells; further: nearly all actives have a fitted effect of over 35% in size; inactives centre near -10
The depositor's hits bear a star; i = inactive; ? = inconclusive; / = not tested or not shown; [ ] = dose if it differs, or a comment. On the % scale 0 is the no-effect control and ±100 the full control effect; potency means the concentration at half of the fitted maximal effect.

| Compound | Vaccinia Venus | VACV mCherry inh |
| --- | --- | --- |
| C/C(=N\N1C(=O)CSC1=S)c1ccc(Br)cc1 | -1% | 5% |
| CCOC(=O)C1=CCN(S(=O)(=O)c2ccccc2Cl)C1c1ccccc1 (configuration not stated) | -4% | 8% |
| Cc1cc2nc(-c3ccc(NC(=O)c4cc5ccccc5o4)cc3)oc2cc1C | -25% | -2% |
| O=C(Cc1ccccc1)N(c1ccc(F)cc1)C1C=CS(=O)(=O)C1 (configuration not stated) | -14% | -13% |
| O=C(Nc1ccc2c(c1)[C@@H]1C[C@@H](CC(=O)N3CCCCC3)O[C@@H](CO)[C@@H]1O2)NC1CCCCC1 | -15% | -9% |
| CC(C)(C)CN1CCNC(=O)C1CC(=O)N1CCOc2ccccc2C1 (configuration not stated) | 4% | -4% |
| O=Cc1cn(CCCOc2ccccc2)c2ccccc12 | -12% | -15% |
| CN(C)C(CNC(=O)CCS(=O)(=O)c1ccccc1)c1ccccc1 (configuration not stated) | -5% | -12% |
| O=C(O)CC(NC(=O)OCc1ccccc1)c1ccccc1 (configuration not stated) | -2% | / |
| CCCCCC(=O)Nc1nc(C)c(-c2csc(Nc3ccc(Cl)cc3)n2)s1 | ? | ? |
| O=[N+]([O-])c1cc(F)c(N2CCCCC2)cc1N1CCOCC1 | -11% | i |
| CC(C)CCNC(=O)C(C)N(C(=O)c1snc(C(N)=O)c1N)c1cnc2ccccc2c1 (configuration not stated) | -21% | -29% |
| O=[N+]([O-])c1ccc([N+](=O)[O-])c(Nc2ccc(N3CCOCC3)cc2)c1 | -10% | ? |
| O=c1cc2c(nn1Cc1ccccc1Cl)-c1ccccc1CC2 | -17% | -13% |
| CCCCNC(=S)Nc1ccc2nc3n(c(=O)c2c1)CCCCC3 | -14% | -17% |
| COc1ccc(C=O)cc1C1=CC(=O)C[C@H](c2ccc(Cl)cc2)C1 | -6% | -18% |
| COc1ccc(/C=C/C(=O)NC(=S)N2CCN(c3ccccc3OC)CC2)cc1 | 0% | -10% |
| COc1ccc2c(CN3CCN(Cc4ccccc4)CC3)cc(=O)oc2c1 | -15% | -11% |
| Cc1cccc(N2CCN(C(=O)Cn3nc(Cc4ccncc4)c4ccccc4c3=O)CC2)c1C | ? | -13% |
| O=C(COc1ccccc1[N+](=O)[O-])OCCCOC(=O)COc1ccccc1[N+](=O)[O-] | -12% | -9% |
| O=C1CCN(Cl)C(=O)N1Cl | -5% | -8% |
| COCCN(C(=O)COC(=O)CSc1cc(C)ccc1C)c1c(N)n(Cc2ccccc2)c(=O)[nH]c1=O | -18% | i |
| CC(=O)c1ccn(S(=O)(=O)c2ccccc2)c1 | -9% | -13% |
| Cc1nnc(Oc2ccccc2)c2ccccc12 | -26% | / |
| Cc1cc(S(=O)(=O)NCc2ccccc2)ccc1OCC(=O)N1CCCC1 | -12% | -21% |
| c1ccc(Cn2nnnc2C(c2ccncc2)N2CCOCC2)cc1 (configuration not stated) | -18% | i |
| COc1ncccc1-c1cc2nc(NCCNC(C)=O)n(C)c(=O)c2s1 | -20% | i |
| Cc1ccc(S(=O)(=O)N(CC(O)Cn2c3ccccc3c3ccccc32)c2cccc(C(=O)N(C)C)c2)cc1 (configuration not stated) | -17% | -24% |
| CCCc1cc(=O)oc2cc(C)cc(OC(C)C(=O)NCCN3CCOCC3)c12 (configuration not stated) | -14% | i |
| CCOc1ccc(NC(=S)NC(=O)c2cccnc2)c([N+](=O)[O-])c1 | -22% | -3% |
| CC1CC(C)CN(C(=O)COC(=O)CNC(=O)C23CC4CC(CC(C4)C2)C3)C1 (configuration not stated) | -11% | -15% |
| O=C(NCc1cccc(Cl)c1)N1CCN(S(=O)(=O)c2ccccc2F)CC1 | -14% | -9% |
| O=C(Nc1nnc(-c2ccc3c(c2)CCCC3)o1)C1CCCCC1 | -28% | -1% |
| Cc1ccc(-n2c(=S)[nH]c3sc4c(c3c2=O)CCc2ccccc2-4)cc1 | -28% | i |
| COc1cccc([C@@]2(O)CCCC[C@@H]2CN(C)C)c1 | -12%[7.34 µM] | -19%[7.34 µM] |
| C[C@]12CC[C@H](O)C[C@H]1CC[C@@H]1C2CC[C@]2(C)[C@@H](C3=CC(=O)OC3)[C@@H](O)C[C@]12O (some centres not stated) | 3.2µM* | ? |
| Cc1ccc(Cl)cc1NC(=O)COC(=O)CC1CC2CCC1C2 (configuration not stated) | -4% | -16% |
| COc1ccccc1OCCOc1ccccc1/C=N/n1cnnc1 | -10% | / |
| COC(=O)C1=C(c2ccc(OC)c(OC)c2)C[C@@H]2CC[C@H]1N2C(=O)NC1CCCCC1 | -6% | -11% |
| O=C(NCCCN1CCOCC1)c1ccc2c(c1)N(Cc1ccccc1)CCS2 | -10% | i |
| CCn1c2ccccc2c2cc(NC(=O)C(C)C)ccc21 | -23% | ? |
| CCCCNC(=O)C1C(c2ccccc2)=Nc2ccccc2N1C(=O)c1ccc(C)cc1 (configuration not stated) | 22% | -3% |
| COc1ccccc1-n1c(CNC(=O)c2ccco2)nnc1SCC(=O)Nc1ccc(F)cc1 | -16% | i |
| CC(C)(C)NS(=O)(=O)c1ccc(CCC(=O)Nc2cc(Cl)ccc2Oc2ccccc2)cc1 | ? | ? |
| Cc1noc(C)c1C(=O)OC(C)C(=O)Nc1ccc([N+](=O)[O-])cc1C(F)(F)F (configuration not stated) | -12% | -27% |
| COc1cccc(/C=C/C(=O)OCC(=O)c2c[nH]c3ccccc23)c1OC | -10% | -14% |
| CCOc1ccc(NC(=O)c2cc(SC)ccc2Cl)cc1 | -27% | -27% |
| CCSc1nnc2n(-c3cccc(C)c3)c(=O)c3c4c(sc3n12)CCCC4 | -7% | -20% |
| COc1cccc(C(O)c2ncc(-c3ccccc3)[nH]2)c1 (configuration not stated) | 3% | 46%[activator] |
| O=S(=O)(Nc1ccncc1Cl)c1ccc2ccccc2c1 | -7% | -3% |
| CN(c1ccccc1)S(=O)(=O)c1nnc(NC(=O)c2cccs2)s1 | 1% | 1% |
| N#C/C(C(=O)N1CCCCC1)=C1\Nc2ccccc2S1 | ? | / |
| COc1ccc(NC(=O)c2ccc(NS(=O)(=O)c3cccc4cccnc34)cc2)cc1 | -18% | ? |
| Cc1ccc(C)c(SCC(=O)Nc2cccc(S(=O)(=O)NC3=NCCCCC3)c2)c1 | -17% | i |
| CC12CCC3C(CC=C4CC(O)CCC43C)C1C/C(=C\c1ccccc1F)C2=O (configuration not stated) | -13% | -28% |
| CCCCC(SCC(=O)Nc1ccccc1)C(=O)O (configuration not stated) | 0% | / |
| CC1=C(C#N)C(C(F)(F)F)(C(F)(F)F)N=C(c2ccco2)N1 | -7% | i |
| NC1=NC(=O)/C(=C\c2ccc(O)c([N+](=O)[O-])c2)S1 | -11% | -26% |
| CCCCN(C(=O)CCSc1ccc(F)cc1)c1c(N)n(Cc2ccccc2)c(=O)[nH]c1=O | -13% | -18% |
| CC(=O)Nc1ccc(N(CC(=O)NCC2CCCO2)C(=O)CCC(=O)Nc2cc(C)on2)cc1 (configuration not stated) | -10% | -20% |

(continued)
| Compound | Vaccinia Venus | VACV mCherry inh |
| --- | --- | --- |
| CC(=O)N1c2ccc(S(=O)(=O)N3CCCC3)cc2CC1C(=O)NCc1cccc(F)c1 (configuration not stated) | 0% | i |
| Cc1noc(C)c1NC(=O)Nc1ccc2c(c1)C(=O)N([C@H](C)CO)C[C@H](C)[C@@H](CN(C)C(=O)Nc1ccccc1)O2 | -9% | i |
| CCCCN(C)CCNC(=O)c1cn(C)c(=O)c2c1c1ccccc1n2C | -4% | i |
| Cc1ccc(C)c(S(=O)(=O)/N=C2\C=C(NS(=O)(=O)c3ccccc3)C(=O)c3ccccc32)c1 | 9% | ? |
| O=C(Nc1ccccc1C(=O)O)c1ccc2ccccc2n1 | -5% | -21% |
| COc1cc(S(=O)(=O)N(Cc2cccnc2)Cc2ccco2)ccc1-n1cnnn1 | -21% | -22% |
| Cc1ccc(S(=O)(=O)NCc2ccncc2)c(C)c1C | -17% | -15% |
| COc1cc(/C=C(/C#N)c2nc(-c3cc4ccccc4oc3=O)cs2)ccc1O | 64%[activator] | -26% |
| CCc1ccccc1N1C(=O)CC(N2CCc3ccccc32)C1=O (configuration not stated) | -7% | i |
| Cc1ccc(-n2nnnc2CSc2nnc(-c3ccc(O)cc3)o2)cc1 | -17% | -27% |
| COc1ccc(CC(=O)OCC(=O)c2ccc(F)cc2)cc1 | -8% | i |
| CC(C)n1c(=O)c2ccccc2n1Cc1cn(Cc2ccccc2)nn1 | -14% | -1% |
| CCOC(=O)c1ccc(N2CN(CC)CNC2=S)cc1 | -19% | i |
| CCOC(=O)CSCC(=O)Nc1ccc(S(=O)(=O)N2CCCCC2)cc1 | -10% | -14% |
| COc1ccccc1N1CCN(C(=O)c2cc(C)oc2C)CC1 | -13% | -9% |
| COc1ccc(-n2ccsc2=S)cc1 | -16% | -5% |
| COCCCNC(=S)Nc1ccc2c(c1)OCCO2 | -9% | -10% |
| CC(=O)c1sc(=S)n(-c2ccccc2)c1C | -10% | i |
| COc1ccccc1CNC(=O)c1cc(S(=O)(=O)N2CCCCC2)c[nH]1 | -18% | -29% |
| O=C(CNc1cccc(C(F)(F)F)c1)N/N=C/c1cn(-c2ccccc2)nc1-c1ccccc1 | ? | ? |
| C#CCOCCOCCOCCNc1nc(N2CCN(C(=O)CCCCCCCCCCNC(=O)[C@@H](CCC(=O)O)n3cc(CCCCCN)nn3)CC2)nc(N2CCN(C(=O)CCCCCCCCCCNC(=O)[C@@H](CCC(=O)O)n3cc(CCCCCN)nn3)CC2)n1 | -17% | i |
| CC(OC(=O)CNS(=O)(=O)c1ccc(C#N)cc1)C(=O)Nc1ccc(Cl)cn1 (configuration not stated) | -2% | -9% |
| CN(C)S(=O)(=O)c1ccc(C(=O)N2CCN(S(=O)(=O)c3ccc4c(c3)OCCO4)CC2)cc1 | -13% | -6% |
| COC(=O)c1ccc2c(=O)n(CCCN3CCCC3=O)c(=S)[nH]c2c1 | -21% | -10% |
| CCn1c(=N)c(C(=O)NCc2cccnc2)cc2c(=O)n3cc(C)ccc3nc21 | 1% | 0% |
| C[C@@H]1CN([C@H](C)CO)C(=O)CCCn2nncc2CO[C@H]1CN(C)S(=O)(=O)c1ccc(Cl)cc1 | -6% | -25% |
| COCCNC(=O)CSc1nc(-c2ccc(OC)c(OC)c2)cc(C(F)(F)F)n1 | -13% | -11%[1.46 µM] |
| Cc1ccc(-n2c(P(C)(=O)O)nc3ccccc32)cc1 | -4% | -8% |
| Cc1cc(NC(=O)Nc2nnc(N(C)C3CCCCC3)s2)ccc1Br | -18% | -8% |
| CN(CC(=O)Nc1cccc(F)c1)C(=O)CCCN1C(=O)c2cccc3cccc(c23)C1=O | -28% | ? |
| COC(=O)C1=C(c2ccc(OC(F)(F)F)cc2)C[C@@H]2CC[C@H]1N2C(=O)NCCNC(C)=O | -9% | -20% |
| Cc1cc2c(C)nc(N/N=C/c3ccc(F)cc3)nc2o1 | -20% | -10% |
| COC(=O)N/N=C/c1ccccc1OCc1ccccc1 | -17% | -16% |
| Cc1ccc(C)c2sc(N3CCN(C(=O)c4ccc([N+](=O)[O-])o4)CC3)nc12 | ? | ? |
| O=C(Oc1cc(=O)n2ccccc2n1)c1ccccc1 | -2% | -16% |
| CN1CCN(c2ccc(S(C)(=O)=O)cc2[N+](=O)[O-])CC1 | 5% | -11% |
| CCOC(=O)c1csc(NC(=O)c2cc(OC)c(OC)c(OC)c2)n1 | -19% | ? |
| COc1cc(C(=O)O)c2c(c1C)OC(=O)c1c(C)cc(O)c(C=O)c1O2 | -3% | 0% |
| O=C(c1ccco1)N1CCN(Cc2nnc(-c3ccccc3)o2)CC1 | -2% | -11% |
| CC(C)(C)NC(=O)/C(=C\c1ccco1)NC(=O)c1cccs1 | -11% | -14% |
| Nc1ccc(Oc2ccc([N+](=O)[O-])cc2[N+](=O)[O-])cc1 | -16% | -22% |
| CN(CC(=O)Nc1ccccc1Br)C(=O)CCCSc1nc2ccccc2[nH]1 | -13% | ? |
| Cc1ccc(NC2c3ncccc3C(=O)N2C2CCCCC2)cc1C (configuration not stated) | -10% | i |
| O=C(NC1CCCC1)C(c1cccnc1)N(CCc1ccccc1)C(=O)c1ccco1 (configuration not stated) | -18% | -1% |
| CC(C)COc1ccc(CC(=O)NO)cc1 | -6% | -23% |
| CCOc1ccc(NS(=O)(=O)c2cc(NC(=O)c3cccc(C)c3)ccc2Cl)cc1 | 13µM* | ? |
| CC1CCCCC1NC(=O)COc1cccnc1[N+](=O)[O-] (configuration not stated) | -16% | i |
| CCOc1ccc(NC(=O)CCS(=O)(=O)c2ccc(Br)cc2)cc1 | -14% | i |
| CCC(C(=O)NC(C)c1ccccc1)C(=O)NC(C)c1ccccc1 (configuration not stated) | -9% | -13% |
| CC(C)CNC(=O)c1cccc(NC(=O)Cc2ccc(Br)cc2)c1 | -26% | -13% |
| C=CCNC(=S)N1CCC(C(=O)c2ccc(C)cc2)CC1 | -24% | -24% |
| O=C(O)CCn1cc(/C=N/O)c(-c2cccc([N+](=O)[O-])c2)n1 | -9% | -6% |
